Bfl-1 A1 inh: caspase 3/7 activation in MEF A1-2A-BIM cells, primary screen, A1 inhibitor project, cell-based, luminescence, HTS. Caspase-Glo 3/7 luminescence, 3 h; percent of clofoctol response, vehicle zero. caspase activation, % (concentration not given with the values). 0.066% of 330,000 active. AID 2462, 2010;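 active = over half of replicate activation scores above 10%, or exactly half above 10 with the replicate mean above 10; inconclusive = replicate mean below 10 yet half the replicates above 10; inactive = over half of replicates below 10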;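 also: wells of about 30 µL received 50 nL stock; many hits fall short of the cut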
Ecoli rRNA inh: reduced GFP signal of wild-type E. coli, primary screen, bacterial rRNA inhibitor project, GFP/RFP fluorescence, OD600, single point. GFP signal change (wild-type ribosome), % (concentration not given with the values). AID 720706, 2013. 1.6% of 350,000 active. E. coli WT GFP vs humanized-ribosome RFP mutants, 24 h; active compounds read low; DMSO median 0, no signal -100;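 active = significant combined selectivity score with lowered wild-type GFP, culture density cut under 30%, mutant RFP and density less affected; inactive = any of these conditions unmet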; also: one replicate is shown; some compounds called inactive have numbers as strong as hits
LANA-H2B inh: blockers of LANA interaction with H2A/H2B – biochemical, FP readout, HTS, primary screen. 0.6% of 320,000 active. Protein LANA1 (Human herpesvirus 8 type P (isolate GK18)), Q9QR71. AID 2629, 2010. cell-free LANA-H2A/H2B peptide, fluorescence polarization. inhibition, % (concentration not given with the values); in the data active = inhibition mostly above about 10%, no sharp cut-off; inactive = mostly below about 6.7%;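 also: stock transfer was 7.5 nL into about 10 µL; 0% = median of vehicle wells and 100% = median of positive control wells; one replicate is shown; the record names a cut of 25% in any replicate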
Target sequence (Q9QR71 whole entry, looked up): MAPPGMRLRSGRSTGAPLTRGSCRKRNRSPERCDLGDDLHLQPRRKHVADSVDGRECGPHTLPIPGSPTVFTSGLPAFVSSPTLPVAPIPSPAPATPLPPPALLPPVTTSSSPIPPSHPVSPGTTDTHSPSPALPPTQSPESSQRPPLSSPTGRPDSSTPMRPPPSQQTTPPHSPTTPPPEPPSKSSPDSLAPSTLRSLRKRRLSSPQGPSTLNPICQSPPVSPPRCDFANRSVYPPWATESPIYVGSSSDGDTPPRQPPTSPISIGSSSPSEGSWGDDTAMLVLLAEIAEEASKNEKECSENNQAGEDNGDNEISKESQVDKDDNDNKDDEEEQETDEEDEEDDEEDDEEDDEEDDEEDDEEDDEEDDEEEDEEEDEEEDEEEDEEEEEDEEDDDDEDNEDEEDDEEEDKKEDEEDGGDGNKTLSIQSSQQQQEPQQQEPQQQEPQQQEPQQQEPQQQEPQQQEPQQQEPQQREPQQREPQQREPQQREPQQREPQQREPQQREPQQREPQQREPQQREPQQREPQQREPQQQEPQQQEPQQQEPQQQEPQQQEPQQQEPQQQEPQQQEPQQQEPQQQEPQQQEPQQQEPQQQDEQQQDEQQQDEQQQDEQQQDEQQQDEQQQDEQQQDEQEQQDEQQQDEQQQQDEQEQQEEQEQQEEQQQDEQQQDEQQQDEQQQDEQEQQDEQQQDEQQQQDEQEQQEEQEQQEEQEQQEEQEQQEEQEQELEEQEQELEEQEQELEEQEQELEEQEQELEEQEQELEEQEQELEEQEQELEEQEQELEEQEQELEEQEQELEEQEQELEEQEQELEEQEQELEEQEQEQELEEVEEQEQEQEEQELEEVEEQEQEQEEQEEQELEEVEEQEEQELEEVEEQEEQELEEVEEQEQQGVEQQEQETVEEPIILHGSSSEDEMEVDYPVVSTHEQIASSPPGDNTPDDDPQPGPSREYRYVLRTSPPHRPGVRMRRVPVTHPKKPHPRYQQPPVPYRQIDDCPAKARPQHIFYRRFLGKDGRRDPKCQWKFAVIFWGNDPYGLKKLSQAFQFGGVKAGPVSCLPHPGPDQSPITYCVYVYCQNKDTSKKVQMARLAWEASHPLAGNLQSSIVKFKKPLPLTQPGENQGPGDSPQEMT
ALR H2O2 inh: inhibitors of human ALR sulfhydryl oxidase, primary screen, biochemical, H2O2 detection, HRP-luminol luminescence, single point | purified ALR, DTT oxidation | inhibition, % (no concentration beside the values) | 3.8% of 290,000 active | AID 485317, 2010;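 active = mean and each replicate at 75% or more; inconclusive = only one of the two met; inactive = neither met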;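 also: stock transfer was 7.5 nL into about 7.5 µL; 0% = neutral wells and 100% = wells with inactivated enzyme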
T cruzi inh: inhibitors of intracellular T. cruzi growth, primary screen, luminescence, NIH3T3 host cells | T. cruzi beta-gal in NIH3T3, 90 h | inhibition, % (test concentration not listed) | 1.4% of 300,000 active;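 active = mean inhibition across valid replicates above about 55%, limit read from the data; inconclusive = mean below that limit but half or more replicates reach it; inactive = mean below it, under half of replicates reach it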;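 also: signal also drops with host cell toxicity which is not excluded here; 0% = plate median of DMSO wells and 100% = zero luminescence signal; higher percent means less beta-gal luminescence so fewer parasites; stock transfer was 50 nL into about 50 µL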
Calb FLC: C. albicans growth inhibition with fluconazole, primary screen, CaCi-2 strain, Alamar Blue fluorescence. C. albicans CaCi-2 (fluconazole-resistant clinical isolate) + fluconazole, 48 h. growth inhibition, % (test concentration not listed). 0.57% of 300,000 active;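 active = most replicates above 75%; inconclusive = exactly half above 75%; inactive = most below 75%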;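 also: all wells also contain fluconazole at 8 µg/ml as a sub-toxic cotreatment; 0% = median of DMSO wells and 100% = median of geldanamycin control wells; wells of about 8 µL received 7.5 nL stock; the first replicate is given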
B2AR ag: beta2AR agonists driving receptor internalization, primary screen, cell-based, FAP fluorogen, flow cytometry; AID 504454, 2011; 0.43% of 340,000 active; Am2.2-beta2AR cells; reference of the scale not given here; Beta-2 adrenergic receptor (Homo sapiens), P07550; response, % (concentration not given with the values);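 active = response above a set limit, near 3 SD of response in nonfluorescent compounds, cut at about 42% in these data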;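 also: stock transfer was 100 nL into about 11 µL; a reference agonist was the positive control; negative values mostly stem from fluorescent compounds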
Beta apoptosis: inhibitors of cytokine-induced beta cell apoptosis, primary screen, luminescence; INS-1E cytokine-induced death, ATP luminescence, 48 h; percent of positive-control rescue, neutral wells zero; protection from apoptosis, % (concentration not given with the values); 0.8% of 300,000 active;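 active = all replicates at 75% or more, or half of them and the mean; inconclusive = half reach 75% but not the mean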;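 also: 0% = cytokine-treated negative control wells and 100% = positive control rescue; higher means more ATP so stronger rescue from cytokine killing; wells of about 40 µL received 100 nL stock; the first replicate is given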
Ecoli rRNA inh OD600: second read-out of Ecoli rRNA inh, no call of its own (marks repeat the call); OD600 change, %; measured here: OD600 growth;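 optical density of the mix in the first replicate; 0 = DMSO median and -100 = no signal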
Ecoli rRNA inh RFP: further read-out of Ecoli rRNA inh, marked with its call; RFP signal change, %; measured here: RFP humanized mutant strains;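 first replicate; 0 = DMSO median and -100 = no signal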
Numbers without * were called inactive; u = inconclusive; x = no result given. An excerpt; rates above refer to the full screens.

SMILES	Bfl-1 A1 inh	Ecoli rRNA inh	Ecoli rRNA inh OD600	Ecoli rRNA inh RFP	LANA-H2B inh	ALR H2O2 inh	T cruzi inh	Calb FLC	B2AR ag	Beta apoptosis
COc1ccc(/C=C/C(=O)NCc2cn(C)nc2C)cc1COc1ccc(Cl)cc1Br	1.2	12	13	-4.7	5.0	1	32	10	-10	-3
COc1ccccc1NC(=O)NCC(c1ccco1)N1CCCCC1 (centres undefined)	3.6	5	-12	-1.4	8.5	-10	-8	-15	10	0
COc1ccc(CCn2cnc3c([nH]c4ccccc43)c2=O)cc1	0.4	-1	5	4.8	-7.6	2	10	11	-3	0
CCOc1ccc(CN2CCNC(=O)C2CC(=O)N(C)C2CCCCC2)cc1 (centres undefined)	0.1	2	1	1.0	10	-38	6	-13	4	0
Cc1ccc2cc(CN(c3ccc(C)c(C)c3)S(C)(=O)=O)c(=O)[nH]c2c1	0.7	9	6	0.7	-3.5	-3	11	-1	-1	-6
CC(NC(=O)C1CCC(=O)N1Cc1ccccc1Cl)c1ccccc1 (centres undefined)	0.7	-4	0	4.5	-2.8	-15	-2	-9	-2	-3
CCCS(=O)(=O)N1CCCC(C(=O)NCCCN(Cc2ccccc2)C(C)C)C1 (centres undefined)	-0.4	x	x	x	17	-4	20	u	-2	-2
CC(=O)Nc1ccc(-c2sc(Nc3cccc4ccccc34)n[n+]2-c2ccccc2)cc1	0.2	9	7	-1.6	4.1	-11	46	-5	-4	-10
COc1ccc(/C=C2\C(=N)N3N=C(CC(=O)N4CCOCC4)SC3=NC2=O)cc1	-0.9	6	15	1.9	1.5	-6	-17	9	1	2
CC(=O)C(Cc1ccc(Cl)nc1)Cc1ccc(Cl)nc1	-1.1	5	5	-1.3	0.0	x	-5	0	-4	-12
CC(C)CN(C(=O)Cn1c(C(F)(F)F)nc2ccccc21)C1CCS(=O)(=O)C1 (centres undefined)	0.4	5	12	-2.6	x	x	-6	-10	0	1
COc1cccc(C(=O)NC(=S)Nc2ccccc2N2CCCC2)c1	0.6	x	x	x	3.6	66	9	6	-2	-8
COc1cc(/C=C/CN2CCC(Oc3ccc(C(=O)N4CCCC4)cc3)CC2)ccc1O	x	-1	13	0.0	x	x	3	-12	5	x
COc1ccc(C(=O)NC(=S)Nc2ccccc2N2CCOCC2)cc1Br	-0.5	x	x	x	-0.2	11	25	6	-1	12
C=CCN(c1ccc(C(=O)OC)cc1)S(=O)(=O)c1ccccc1	0.2	17	13	-0.1	3.9	2	-2	3	-6	4
O=S(=O)(c1cc(Cl)ccc1Cl)N1CC2CCCN2c2ccc(C(F)(F)F)cc21 (centres undefined)	2.3	x	x	x	0.9	x	13	-2	1	11
COc1cccc(NC(=O)CSc2nc3c(sc4ccccc43)c(=O)n2CCN(C)C)c1	1.3	-22*	-3.7*	-1.1*	-2.9	100*	-11	-2	18	-17
Cc1onc(-c2ccccc2)c1C(=O)NCc1ccc2c(c1)OCO2	0.4	0	-3	0.0	1.2	-4	-13	-9	2	1
COC(=O)C1C2C=CC3(CN(Cc4ccco4)C(=O)C13)O2 (centres undefined)	0.7	x	x	x	-2.5	-2	-11	4	-8	-14
Cc1cccn2c(=O)c(/C=C(\C#N)C(N)=O)c(N3CCN(c4cccc(Cl)c4)CC3)nc12	0.5	-3	-4	5.6	1.6	-3	40	59	20	7
O=C(Nc1cc2c(cc1C(=O)O)OCCCO2)c1ccc(F)cc1F	-0.3	3	-21	-0.2	1.0	x	-27	-5	2	-1
Cc1ccc(S(=O)(=O)N2CCOCC2)cc1C(=O)Nc1ccc2c(c1)OCCO2	1.2	12	5	1.8	1.0	x	x	x	2	3
O=C1CCCN1c1ccc(C(=O)N(Cc2nnc(-c3ccc(Cl)cc3)o2)C2CC2)cc1	1.0	-4	-3	0.2	2.0	-15	5	3	-13	4
O=C(COc1ccc([N+](=O)[O-])cc1)NNC(=O)c1cccnc1	0.0	0	-2	-2.2	-4.2	x	-11	1	-8	-6
CC(C)CC(=O)Nc1nnc(SCC(=O)NCc2ccco2)s1	0.6	8	4	3.7	-2.1	-9	7	4	-8	-5

(cont.)
SMILES	Bfl-1 A1 inh	Ecoli rRNA inh	Ecoli rRNA inh OD600	Ecoli rRNA inh RFP	LANA-H2B inh	ALR H2O2 inh	T cruzi inh	Calb FLC	B2AR ag	Beta apoptosis
O=C(NCC1CCCCC1)C1CCCN(C(=O)NC2CCCCC2)C1 (centres undefined)	0.0	x	x	x	-1.4	-7	-5	-4	-5	-2
CCOC(=O)c1cc(NC(=O)N2CCCCC2)c(C)nc1C	-0.6	x	x	x	0.1	1	-9	-15	-6	2
Cc1ccc(Cn2c(C3CCCN3c3nc(-c4cc(Cl)c(N)c(Cl)c4)cs3)nc3cc(Cl)c(Cl)cc32)cc1 (centres undefined)	0.7	-55	-79	-17	-4.1	0	-10	7	0	15
COC(=O)Nc1ccc(S(=O)(=O)N2CCCC(C(=O)N3CCOCC3)C2)cc1 (centres undefined)	0.1	8	3	-0.3	2.6	-4	0	-18	1	-1
COc1cc(/C=C2\SC(=S)N(C(C(=O)O)c3ccccc3)C2=O)cc(OC)c1OC (centres undefined)	0.3	-26*	-11*	3.5*	5.9	x	-15	8	15	-4
CCOC(=O)c1nn(-c2ccc(Cl)cc2)c2nc(Nc3ccccc3)cc(=O)n12	-0.1	x	x	x	1.0	-2	4	3	-1	5
NC(=O)Cn1c(-c2nonc2N)nc2ccccc21	-0.5	11	-1	-7.1	-9.0	-3	-4	-18	0	-1
Cc1ccc(NC(=O)CCC(=O)c2cccs2)cc1	-0.4	x	x	x	0.1	-4	-14	-19	-10	-4
Cc1ccc(Sc2ccc(CN3CCCCC3)cc2[N+](=O)[O-])cc1	0.7	-34	-62	5.1	0.9	-3	50	0	-2	15
COc1cc(-c2nc(Cc3c(F)cccc3Cl)no2)cc(OC)c1OC	0.2	x	x	x	0.9	-3	14	-6	-3	-2
CN(C)c1ccc(CNCC2CCCO2)cc1 (centres undefined)	1.0	8	8	0.0	0.5	17	11	-6	1	-8
CCC(C)COC(c1ccccc1)(c1ccccc1)C(Oc1nc(C)cc(C)n1)C(=O)O (centres undefined)	-3.2	-4	-10	-1.3	1.6	65	-3	25	-20	-3
O=C(COC(=O)CSc1ccc2ccccc2c1)Nc1ccccc1OC(F)F	-0.9	-4	1	-3.9	-2.8	-13	-24	0	21	-9
COc1ccc(C(=O)NCCNC(C)=O)cc1S(=O)(=O)NCc1ccc(Cl)cc1	0.0	x	x	x	-2.9	-7	-4	-8	-1	-5
COc1ccccc1CNC(=O)CSc1ccsc1[N+](=O)[O-]	-2.0	x	x	x	2.3	-6	3	16	0	-3
Cc1cccc(NC(=O)c2cc(=O)c3ccccc3o2)c1	0.1	12	30	-1.5	3.7	-3	5	-16	2	-2
O=C(COC(=O)c1cc([N+](=O)[O-])ccc1N1CCOCC1)Nc1c(Cl)cccc1Cl	-0.1	-10	-2	3.0	-4.8	-1	-2	1	-5	4
CC(C)(C)CC(C)(C)NC(=O)Nc1cccc([N+](=O)[O-])c1	0.5	-51	-82	-32	-1.5	-5	33	10	-1	16
CCOC(=O)C1CCCN(Cc2nc3ccc([N+](=O)[O-])cc3c(=O)n2-c2ccc(OC)cc2OC)C1 (centres undefined)	-0.7	9	3	-6.0	-2.4	-10	6	4	-5	-10
CC(C)CC(=O)Nc1nnc(SCC(=O)NCc2ccc3c(c2)OCO3)s1	-0.4	0	11	-0.5	1.0	0	-12	-13	2	x
CSCCC(NC(=O)c1cccc(S(=O)(=O)N2CCOCC2)c1)C(=O)Nc1ccc(F)cc1 (centres undefined)	0.7	x	x	x	-3.1	0	-3	-15	1	-8
CCC(=O)Nc1ccc(NC(=O)c2cccc(OC)c2)nc1	-13	x	x	x	-10	-15	-8	0	-13	-5
CN(C)C1=NC[C@H](Cc2ccccc2)N1CCCC1CCCC1	-0.1	-26	-34	1.3	-3.4	-2	x	x	26	40
CNC(=O)N(O)C1N(C)C(=O)N(CC(=O)OC)C1(C)C (centres undefined)	0.6	x	x	x	-0.2	-5	-11	-6	6	-7
CC(=O)Nc1ccc(S(=O)(=O)N2CCN(c3cc(C)nc4ccccc34)CC2)cc1	-0.4	x	x	x	-2.5	-3	-9	2	-11	2

(next part)
SMILES	Bfl-1 A1 inh	Ecoli rRNA inh	Ecoli rRNA inh OD600	Ecoli rRNA inh RFP	LANA-H2B inh	ALR H2O2 inh	T cruzi inh	Calb FLC	B2AR ag	Beta apoptosis
C=CCN1C(=O)C2C3C=CC(C2C1=O)C1C2C(=O)N(CC=C)C(=O)C2C31 (centres undefined)	0.6	18	19	3.6	1.3	-1	-8	8	-5	-4
Cc1ccc(CNC(=O)c2cc3c(s2)CS(=O)(=O)C3)cc1	0.2	5	6	-1.9	-1.2	-3	9	-15	6	-6
COc1ccc(/C(C)=N/NC(=O)C2CC2)cc1	-0.2	19	12	-6.8	3.4	-3	1	-1	-19	-6
COc1cccc(C(=O)Nc2ccc(NC(=O)C3CCCCC3)nc2)c1	x	1	5	1.2	x	x	8	24	6	x
Cc1cccc2c(=O)cc(C)n(Cc3ccccc3)c12	0.1	-24	-12	-12	-7.3	1	4	-14	4	1
O=C(N/N=C/c1ccco1)c1ccc2nc[nH]c2c1	0.5	39	17	1.7	-14	1	-8	-5	-4	-3
COc1cccc(C2C(C#N)=C(C)NC3=C2C(=O)CC(C)(C)C3)c1 (centres undefined)	1.0	9	3	7.5	3.0	-6	2	2	-1	0
O=C(/C=C\NCC(=O)c1ccccc1)c1ccc2ccccc2c1	0.2	-18	-13	2.4	-0.4	-86	-15	-9	10	0
COc1ccc(-c2cc3ccccc3n2CC(O)Cn2nc(C)cc2C)cc1 (centres undefined)	0.7	x	x	x	1.7	-10	18	2	2	-6
NC(=O)CC(CC(=O)OCc1ccccc1)c1ccccc1 (centres undefined)	-0.2	0	-5	-9.3	3.1	-7	-11	-2	-7	-2
COc1ccc(C(=O)NCCc2c[nH]c3ccc(OC)cc23)cc1	1.8	-9	-4	-1.0	0.1	x	-18	0	0	1
Cc1ccc(NC(=O)CS(=O)CC(=O)N2CCN(c3ccccc3)CC2)cc1 (centres undefined)	0.6	4	10	1.1	-1.1	-15	-5	7	4	-4
CCN1CCN(S(=O)(=O)c2ccc(Cl)c(C(=O)Nc3ccccc3N3CCCCC3)c2)CC1	-0.3	-5	-28	30	1.2	-50	25	-1	-6	8
N#CCC(=O)Nc1ncn(Cc2ccccc2Cl)n1	0.3	x	x	x	2.3	-22	-5	17	1	1
CCOc1ccccc1NS(=O)(=O)c1ccc2c(c1)NC(=O)CCS2	0.4	1	-1	-0.7	1.4	7	9	-6	3	1
